NPYLR7 ag: mosquito NPYLR7 agonism; 270,000 tested, 0.15% active; AID 1259423; activation, % at 10 µM; HEK293T NPYLR7/Galpha15, GCaMP6s calcium fluorescence; in the data active = activation above about 40%;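 also: 0% = vehicle and 100% = reference agonist at the receptor; some compounds past the cut are filed as inactive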
NPYLR7 ag max-min: second read-out of NPYLR7 ag, no call of its own (marks repeat the call); activation, %; measured here: Max-Min RFU normalised activation; some inactives read as strong as hits;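 span of the calcium signal over five minutes; 0% = vehicle and 100% = native peptide agonist; compound fluorescence can raise it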
* marks the source's active call; other numbers are inactive results; & = joins results of further samples.

no.	smiles	NPYLR7 ag	NPYLR7 ag max-min
1	COc1ccc2cc(-c3[nH]ncc3CN(C)Cc3nc(-c4cccnc4)no3)ccc2c1	2	-3
2	CC1C(=O)N(c2ccc(Br)cc2)CCN1C(=O)C1CC1 (stereo not drawn)	-1	2
3	CC(C)(O)c1cc(F)c(Cl)cc1Cl	-2	-7
4	CNS(=O)(=O)c1ccc(Cl)c(C(F)(F)F)c1	16	14
5	CCc1cn[nH]c1C1CCCN(C(=O)c2nc(C)n3c2C(=O)N(CC)CC3)C1 (stereo not drawn)	1	0
6	O=C(NCCCN1CCN(c2ccccc2F)CC1)c1cccnc1	0	-3
7	CN(Cc1cccc(Cl)c1Cl)c1ccc(S(N)(=O)=O)cn1	-3	-4
8	CCOc1ccc(F)c(C(=O)O)c1NS(=O)(=O)c1ccc(OC)c(OC)c1	3	-3
9	CCNC(=O)c1ccc(CSc2nc(C)cc(N3CCN(C/C=C/c4ccccc4)CC3)n2)o1	-3	-1
10	CN1C(=O)C(=Cc2c(NCCO)nc3ccccn3c2=O)SC1=S	11	7
11	Cc1ncc(CN(C)c2cnn(-c3ccc(C)c(Cl)c3)c(=O)c2Cl)s1	3	3
12	O=C(NC1CCc2ccccc21)c1ccc(OC2CCN(C(=O)c3cccnc3)CC2)cc1 (stereo not drawn)	-1	-4
13	CCOc1ccc(CC(=O)OCCn2ncc(C#N)c2N)cc1	-2	-5
14	COC(=O)c1ccc(OC(=O)c2ccc(S(C)(=O)=O)cc2)cc1	2	0
15	O[C@H]1[C@H](n2ccnc2)c2ccccc2C12CCN(Cc1cccc(F)c1)CC2	4	3
16	O=S(=O)(Nc1ccccc1)c1ccc2c(c1)OCCO2	2	5
17	O=C(c1cnccn1)N1CCc2onc(C(c3ccccc3)c3ccccc3)c2C1	8	6
18	Cc1cc(C)n(-c2cc(NCCNC(=O)c3ccc(Br)o3)ncn2)n1	-7	-13
19	CNC(=O)C1Cc2ccccc2N1C(=O)C1CC1 (stereo not drawn)	-5	-6
20	O=C(COc1cccc(F)c1)NC1CCc2ccccc21 (stereo not drawn)	22	30
21	C=CCn1c(N=Nc2c(O)[nH]c3ccccc23)nc2c1c(=O)n(C)c(=O)n2C	1	14
22	CCCC(=O)OCC(O)CN(Cc1cccc(C)c1)CC(C)C (stereo not drawn)	-2	12
23	CC(C(=O)NCCS(N)(=O)=O)c1ccc2ccccc2c1 (stereo not drawn)	1	-6
24	O=C(CCC(=O)N1CCCCC1c1cccnc1)NC1CCCCCCC1 (stereo not drawn)	23	8
25	O=C(NNC(=O)c1cc2ccccc2cc1O)c1ccc(Br)o1	15	11
26	CC(C)(CCl)C(=O)N1CCC[C@@H]1C(=O)NC1CCC(NC(=O)c2ccccc2)CC1 (stereo partly drawn)	17	23
27	Cc1ccc(-c2ccsc2C(=O)NC2CCN3CCCCC23)cc1 (stereo not drawn)	1	0
28	Oc1ccc(/C=N\Nc2nc(Nc3ccccc3)nc(N3CCOCC3)n2)cc1	-8	-15
29	CCC1CN(C(=O)c2ccc(-c3cccc4c3OCC4)nc2)CCN1C(C)C (stereo not drawn)	7	6
30	O=C(C1CN(c2nccc(CCC(F)(F)F)n2)CCN1)N1CCCC1 (stereo not drawn)	9	25
31	Cc1c(C(=O)N2CCCC2)cc(-c2ccc(Cl)cc2)n1-c1ccccc1	-1	10
32	COc1ccc(Cl)cc1CC(=O)NCc1c(C)cc(C)[nH]c1=O	6	4
33	CSCCCNC(=O)C1CCC(=O)N(Cc2ccccn2)C1 (stereo not drawn)	7	3
34	CCn1ncc(/C=C/C(=O)c2ccc(I)cc2)c1C	-2	-6
35	C[C@H](C(=O)Nc1ccccc1)N1Cc2ccc(N3CCOCC3)nc2C1=O	6	3
36	COc1cc(C2NCCC(=O)C2(C)C)cc(OC)c1OC (stereo not drawn)	11	6
37	CC1CCc2sc(-c3nnc(SCCCC(=O)c4cccs4)o3)cc2C1 (stereo not drawn)	6	5
38	Cc1nc(CNC(=O)C2CC2c2ccc(Br)cc2)no1 (stereo not drawn)	12	5
39	Cc1ccc(-c2c(C)oc(C)c2C(=O)N2CCC(Cc3ccccc3)CC2)cc1	-8	-11
40	O=C(c1ccc2c(c1)OCO2)N1CCC(c2cn(Cc3ccc(C(F)(F)F)cc3)c3ccccc23)CC1	7	6
41	CCCc1cnc2c(c1SCCOC)c(=O)n(C)c(=O)n2C	4	6
42	O=C(O)c1cccnc1CN1CCN(c2nsc3ccccc23)CC1	-4	-5
43	C=CCn1c(SCc2ccc(C(=O)OC)o2)nnc1-c1ccc(OC)cc1	-4	8
44	CCc1c(C#N)c(N)nc(SCC(=O)c2ccc(C)cc2)c1C#N	11	9
45	Cc1cccc(C(=O)NCc2c(C)nc3c(c2C)c(=O)[nH]n3C)c1C	-3	-4
46	CCC(Oc1ccccc1)C(=O)ON=C(N)c1ccc(C)cc1 (stereo not drawn)	5	4
47	CCc1nc2n(n1)C(=O)C(C(c1ccco1)N1CCN(CC)CC1)S2 (stereo not drawn)	-7	-13
48	COc1ccccc1-c1cc(C(=O)O)nc2cc(C(C)(C)C)nn12	-5	3
49	Cc1nc2sccn2c1C(=O)N1CCCC(CNS(=O)(=O)c2cccs2)C1 (stereo not drawn)	3&-3	3&-4
50	O=C(COc1c(F)c(F)cc(F)c1F)NNC(=O)CC1CCS(=O)(=O)C1 (stereo not drawn)	2	2
51	CCOCCCn1c(SCc2ccc(OCC)cc2)nc2cc(S(=O)(=O)N3CCCC(C)C3)ccc21 (stereo not drawn)	5	0
52	Cc1cccc2nc(-c3ccc(C(C)(C)C)cc3)c(NC(C)(C)C)n12	-4&-1	1&-2
53	CO[C@H](C(=O)NC1CCN(Cc2cccc(O)c2)CC1)c1ccccc1	-5	-9
54	CCCCc1nc(N2CCCN(C(=O)c3cccc(C(F)(F)F)c3)CC2)c2c(C)nn(-c3ccccc3)c2n1	2	5
55	CC(=O)Oc1ccc(CN2C(=O)C(Cc3ccccc3)ON=C2c2ccccc2)cc1 (stereo not drawn)	8	4
56	COc1ccc(C(C)=O)cc1CC(=O)N1CCCc2c(C(=O)NC(C)C)cccc21	-1	-1
57	Cc1ccnc(Nc2ccc(N3CCN(C(=O)C4CCCCC4)CC3)nn2)c1	13	7
58	COc1ccc(S(=O)(=O)Oc2ccccc2CNC2CC2)cc1	3	-1
59	CCOC(=O)c1ccc2c(c1)nc(SCc1c(F)ccc(F)c1Cl)n2Cc1ccc(C(F)(F)F)cc1	2	-2
60	CCN(CC)S(=O)(=O)c1cc(C(=O)Nc2ccccc2OC)ccc1Cl	3	-7

Remaining list, next part.
no.	smiles	NPYLR7 ag	NPYLR7 ag max-min
61	COC(=O)[C@@H]1C[C@@H](NC(=O)c2ccc3c(c2)nnn3C)CN1C	22	20
62	Cc1cccc(NC(=O)CCC2CCN(C(=O)c3ccc(C)s3)CC2)c1	10	3
63	COc1cc(OC)cc(C2SCCN2C(=O)c2ccc([N+](=O)[O-])cc2Cl)c1 (stereo not drawn)	-7	6
64	O=S(=O)(C1=Cc2ccccc2CC1)N1CCN(c2ncccn2)CC1	0	6
65	Cc1ccn2c(NC(C)(C)C)c(-c3ccc(F)cc3)nc2c1	10&1	8&7
66	COc1ccc(-c2cnnc(N(C)CCC3CCOCC3)n2)cc1	-2	-6
67	O=C(CSc1nc2c(cnn2-c2ccccc2)c(=O)[nH]1)NC(=O)NC1CCCC1	-6	-9
68	COc1cccc(C(CN2CCN(S(=O)(=O)C3CC3)CC2)OCc2ccc(C#N)cc2)c1 (stereo not drawn)	-2	10
69	CN(c1ncnc2cc(F)c(F)cc12)C(CCO)c1ccccc1 (stereo not drawn)	-4	-5
70	Cc1ccc(F)c(N2C(=O)CSC2c2cccc(NC(=O)c3ccc(F)cc3)c2)c1 (stereo not drawn)	-6	8
71	C=C(C)CNC(=O)c1ccc(-c2cccc(Cl)c2)s1	-2	6
72	C#CCN1CCC[C@H]1C(=O)NCCNc1ncnc2c1c(Br)nn2C	4	12
73	CC(C)C(O)C(=O)N1CCC(c2[nH]ncc2-c2cccc(F)c2)CC1 (stereo not drawn)	0	-2
74	O=S(=O)(NCc1ccc2c(c1)OCCO2)c1ccc(F)cc1F	-1	-3
75	CN(C(=O)c1cc(Cl)sc1Cl)c1ccc(-c2onc3c2CCc2ccccc2-3)cc1	-4	-12
76	Cc1ccc(NC(=O)C2(C)CCCN(C)C2)cc1C (stereo not drawn)	-1	0
77	COCc1cc(N2CCN(Cc3ccc4c(c3)OCO4)CC2)nc(SCc2ccc(C(=O)NCCN3CCOCC3)o2)n1	-10	-9
78	Cc1sc(NC(=O)C2CC23CCOCC3)nc1-c1ccc(F)cc1 (stereo not drawn)	5	3
79	Cc1c[nH]c(CNC(=O)C2CCCN2C(=O)C2CCCCC2)c(C)c1=O (stereo not drawn)	-6	-4
80	Cc1sc(-c2c(C#N)c(N)nc3c2CCCC3)cc1Br	0	0
81	C=CCOC1CCCN(C(=O)c2ccccc2F)C1 (stereo not drawn)	-8	-4
82	CCCSc1nnc(SCC(=O)Nc2ccc(Cl)cn2)s1	14	6
83	CC(C)=C1C2CCC1C1C(=O)N(c3nc(-c4ccccc4)c(C)s3)C(=O)C21 (stereo not drawn)	-11	-17
84	CCCCn1c(SCC(=O)N2c3ccccc3CCC2C)n[nH]c1=O (stereo not drawn)	8	2
85	COc1ccc(-c2nn(-c3ccccc3C)cc2CNC(C)Cn2cncn2)cc1F (stereo not drawn)	-2	-4
86	NS(=O)(=O)c1ccc(N2CC=C(c3ccccc3)CC2)nc1	6	0
87	CC(=O)N1CCN(c2nc(C(C)C)nc3sc(C)c(C)c23)CC1	-2	5
88	O=C(/C=C/c1cn(S(=O)(=O)c2ccc(Cl)s2)c2ccccc12)NCCCN1CCCC1=O	-10	-12
89	O=C(c1ccccc1F)N(Cc1cccnc1)Cc1nccn1Cc1ccccc1C(F)(F)F	5	8
90	COCCN(CC(=O)N1CCc2sccc2C1c1ccccc1C)S(=O)(=O)c1ccc(Cl)cc1 (stereo not drawn)	-3	2
91	O=C(Cn1nc(C(F)(F)F)c2c1CCC2)NC1CCCC1	-2	-6
92	Cc1nn(-c2ccc(N3CCN(C(=O)C(C)C)CC3)nn2)c(C)c1C	-6	-9
93	COC(=O)c1ccc(NC2=CC(=NS(=O)(=O)c3ccc(OC)cc3)c3ccccc3C2=O)cc1	-4	-7
94	CCOC(=O)c1sc2nc(=O)n3ccccc3c2c1N	1	2
95	O=C(NC1CCN(c2ccccn2)CC1)c1cc2cc(F)ccc2s1	-4	-3
96	Cc1ccc(C(N)=O)c(OCc2nc3ccccc3n2C(F)F)c1	7	6
97	COc1ccc(C)cc1NC(=O)N1CCC(Cc2ccc(C(C)(C)C)cc2)CC1	20	8
98	CCc1noc(CN(CC)C(=O)c2cccs2)n1	-4	-7
99	O=C(CC1CSc2nc3c(c(=O)n21)CCC3)N1CCN(Cc2ccccc2)CC1 (stereo not drawn)	1	-3
100	CCN(CC)c1ccc(/C=N\Nc2ncnc3nc[nH]c23)cc1	0	-3
101	CCCn1c(=O)c2c(nc3n2CC(C)=NN3CC(=O)OC)n(C)c1=O	-6	-7
102	CC(C)c1nnc(SCc2ccccn2)c2c1cnn2-c1ccc(F)cc1	-11	-15
103	Cc1cc(C)n(-c2cccc(CN(C)Cc3nc(-c4cccs4)no3)c2)n1	2	-6
104	Cc1ccc(C)c(Cn2c(=O)c3c(nc4n(CCN(C)C)c(C)cn34)n(C)c2=O)c1	-1	6
105	O=C(CN1CCN(c2ccccc2F)CC1)N1N=C(c2ccccc2F)CC1c1ccc(Cl)cc1 (stereo not drawn)	22	23
106	CCCOc1ccc(-c2ccc(-c3nc(-c4ccccc4Cl)no3)cc2)cc1	-10	-13
107	Cc1ccccc1NC(=O)CC(=O)NCCC(=O)Nc1ccccc1F	1	1
108	C=CCN=C1SCC(=O)N1S(=O)(=O)c1ccccc1	6	5
109	Fc1ccc(Oc2cc(N3CCN(C4CCCC4)CC3)ncn2)c(F)c1	-9	0
110	CCCCN(CCC(=O)NCCc1ccc(OC)c(OC)c1)c1nc(Cc2cccc(OC)c2)ns1	-6	-8
111	Cc1cnc(C(=O)N(C)CCCc2cc(-c3cccc(F)c3)n[nH]2)cn1	-2	2
112	CC(=O)c1ccc(OC(=O)COc2cccc(OCCC(C)C)c2)cc1	-5	-6
113	CCN(Cc1ccc(Cl)s1)C(=O)c1ccc(OC)cc1O	2	1
114	Cc1ccc2oc(-c3cccc(NC(=O)c4ccc(Cl)cc4)c3)nc2c1	16	1
115	CC(=O)Nc1ccc(CC(=O)C(C#N)c2nc3nccc(C)c3[nH]2)cc1 (stereo not drawn)	7	3
116	CCC(C(=O)OCC(=O)Nc1ccc(C)c(Cl)c1)c1ccccc1 (stereo not drawn)	1	-5
117	CCN(CC)S(=O)(=O)NCC(C)(CC)N1CCOCC1 (stereo not drawn)	0	-1
118	Cn1ccccc1=NCCCN1CCOCC1	15	15
119	N#CC(=Cc1ccc(O)cc1)S(=O)(=O)c1ccc(Br)cc1	1	8
120	COc1cccc(CC2CCCN2C(=O)Cc2[nH]nc3ccccc23)c1 (stereo not drawn)	3	789

Single records (already shown):
Listed for `Cc1cc(C)n(-c2cc(NCCNC(=O)c3ccc(Br)o3)ncn2)n1` → NPYLR7 ag = -7; NPYLR7 ag max-min = -13
Listed for `CC(C)=C1C2CCC1C1C(=O)N(c3nc(-c4ccccc4)c(C)s3)C(=O)C21` (stereo not drawn) → NPYLR7 ag = -11; NPYLR7 ag max-min = -17

For convenience, some entries already given:
no.	smiles	NPYLR7 ag	NPYLR7 ag max-min
117	CCN(CC)S(=O)(=O)NCC(C)(CC)N1CCOCC1 (stereo not drawn)	0	-1
118	Cn1ccccc1=NCCCN1CCOCC1	15	15
119	N#CC(=Cc1ccc(O)cc1)S(=O)(=O)c1ccc(Br)cc1	1	8
120	COc1cccc(CC2CCCN2C(=O)Cc2[nH]nc3ccccc23)c1 (stereo not drawn)	3	789

An excerpt, so the mix of outcomes need not match the whole.
